Bioassay records (PubChem)
PABP polyA inh = blocks human PABP binding to poly(A) RNA; inhibition, % at 35 µM; 290,000 tested, 1% active; fluorescence polarization; P11940;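 active = 50% or more with normal probe brightness, or confirmed in later tests; inconclusive = above 50% with abnormal brightness, or retests that disagree; inactive = below 50% or failed in later tests; about a fifth of its hits are not listed in these tables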;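 also: calls also rest on retests at 20 µM and on dose response follow-up; controls were probe without protein and protein plus probe with vehicle; some compounds called inactive have numbers as strong as hits; many hits fall short of the cut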
HIV Env fusion = HIV envelope-mediated fusion inhibition. HeLa-JRFL Env/CEM21 cell fusion, luciferase. inhibition, % at 12.3 µM. 360,000 tested, 1.1% active;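 active = mean replicate inhibition score of at least 50 and every replicate individually at or above 50; inconclusive = only one of the two criteria met; inactive = mean below 50 and not all replicates reaching 50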;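 also: 0% = plate neutral controls and 100% = maraviroc near 300 nM; one replicate is shown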
MT1-MMP act inh = blocks activation of human MT1-MMP | P50281 | HT1080 RFP-PRO-GFP cells, GFP/RFP ratio fluorescence, overnight; percent of plate control window, DMSO zero | GFP/RFP ratio change, % at 20 µM | 360,000 tested, 0.061% active | AID 651647;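 active = GFP/RFP ratio change of at least 30% with cell ATP level not reduced by more than half and red fluorescence within 50% of control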; also: strong numbers were not always called active
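Material: RFP-PRO-GFP reporter HT1080 cells. Dosing: single-point 20 µM compound, 1% DMSO. Controls: DMSO and RFP-L50D-GFP cell wells. Timing: cells overnight before dosing, compound overnight, 37 °C, 5% CO2. Measure: GFP/RFP fluorescence ratio.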
eIF4H FP inh = inhibitors of RNA binding by human eIF4H. Q15056. eIF4H fluorescence polarization binding assay. inhibition, % at 35 µM. 290,000 tested, 0.94% active;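 active = 50% or more with normal probe brightness, or confirmed in later tests; inconclusive = above 50% with abnormal brightness, or retests that disagree; inactive = below 50% or failed in later tests; about a fifth of its hits are not listed in these tables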;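 also: calls also rest on retests at 20 µM and on dose response follow-up; 0% = protein and probe with vehicle and 100% = probe without protein; strong numbers were not always called active; many hits fall short of the cut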
Yeast UUG start = yeast start codon fidelity modulation; S. cerevisiae UUG-firefly luciferase reporter, luminescence/redox ratio; activity score, % at 18.7 µM; 350,000 tested, 0.13% active; AID 602363;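 active = replicate mean at a twofold rise or more, about +100% in these data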;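 also: firefly luciferase made from a UUG start codon reports start codon fidelity; reporter light over untreated wells divided by growth signal over untreated wells; some hits fall short of that in this replicate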
CSC inhib = blocks cancer stem cells; cancer stem cell-like cells viability, luminescence; inhibition, % at 7.5 µM; 300,000 tested, 1.1% active; AID 2717;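 active = mean at 75% or more and at least half the replicates too; inconclusive = mean and replicates disagree; tested in HMLE shEcad cells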;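 also: 0% = median of negative and 100% = median of positive control wells; the first replicate is given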
Rce1 inh = blocks yeast Ras-converting enzyme; yeast membranes, quenched prenylated peptide cleavage fluorescence; calls only; 290,000 tested, 0.27% active; AID 2563;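 active = fall in fluorescence gain of 50% or more versus controls, with final raw signal at or below 3038400; inconclusive = same 50% fall but final raw signal above 3038400; inactive = fall in fluorescence gain under 50%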;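 also: plate controls were neutral control wells for no effect and wells lacking membranes for full effect; tested at 10 µM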
Target sequence (Q03530 whole entry, looked up): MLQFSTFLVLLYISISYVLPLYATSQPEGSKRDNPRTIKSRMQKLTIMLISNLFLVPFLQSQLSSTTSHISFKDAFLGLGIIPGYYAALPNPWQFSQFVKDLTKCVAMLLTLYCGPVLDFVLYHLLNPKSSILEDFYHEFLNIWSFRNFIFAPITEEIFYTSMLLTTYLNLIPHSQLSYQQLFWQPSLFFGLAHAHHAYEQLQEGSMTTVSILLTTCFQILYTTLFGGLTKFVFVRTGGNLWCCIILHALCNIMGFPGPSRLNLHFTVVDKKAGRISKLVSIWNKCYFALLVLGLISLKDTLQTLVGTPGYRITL
eIF4H FP inh retest = also measured in eIF4H FP inh; calls as there; inhibition, %; compound at 20 µM; confirmation average;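 mean of two retest wells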
PABP polyA inh retest = also measured in PABP polyA inh; calls as there; inhibition, %; compound at 20 µM; confirmation repeats;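 mean of two retest wells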
MT1-MMP act inh RFP = recorded beside MT1-MMP act inh, whose call it bears; RFP signal change, %; measured here: RFP expression control read;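 0 = vehicle wells; hits needed this value within 50% of zero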
The depositor's hits bear a star; i = inactive; ? = inconclusive; / = not tested or not shown; & = joins results of further samples.

SMILES	PABP polyA inh	HIV Env fusion	MT1-MMP act inh	MT1-MMP act inh RFP	eIF4H FP inh	Yeast UUG start	CSC inhib	Rce1 inh	others
CC(C)N1CCCC(CNC(=O)CCc2nnc(CCCCc3ccccc3)o2)C1 (stereo unspecified)	15	13	-1	6	5	/	-2	i
CC(C)CCNC(=O)Cn1c(=O)oc2cc(S(=O)(=O)N3CCc4ccccc43)ccc21	-4	24	-2	-10	-5	-10	-6	i
CCOC(CCn1c(SCC(=O)NC2CCCC2)nc2ccccc2c1=O)OCC	10	-7	1	5	3	-22	-5	i
Cc1c(Br)c([N+](=O)[O-])nn1CC(=O)NCc1ccco1	-1	-3	3	1	-8	-25	-7	i
Cn1nc(C(=O)OCc2ccc(Br)cc2F)c2ccccc2c1=O	-2	-11	-5	-20	11	/	/	i
COc1ccc(NC(=O)c2ccccc2N(Cc2ccccc2)S(C)(=O)=O)c(OC)c1	3	7	-1	-2	-4	-19	/	i
Cc1nc2cc(NCc3cc([N+](=O)[O-])ccc3O)ccc2n1Cc1ccccc1	12	0	2	-4	-4	-21	/	i
CC12CC3CC(C)(C1)CC(C(=O)NCc1ccncc1)(C3)C2	-4	101*	-4	-2	-6	6	1	i
c1ccc(Cc2cc(-c3ccccc3)on2)cc1	0	-141	-3	0	-1	1	0	i
O=C(Nc1nc2ccccc2n1Cc1ccc(Cl)cc1)c1ccco1	-3	/	11	7	-7	/	20	i
Cc1ccc(NC(=O)c2ccco2)cc1C	-6	/	13	-1	-8	-14	15	i
O=C(CSc1nc2ccccc2c(=O)n1-c1ccccc1F)NC1CCS(=O)(=O)C1 (stereo unspecified)	/	5	-3	1	/	-12	/	/
COCc1cc(C)nc(OCC(=O)N/N=C/c2ccccc2)c1C#N	-1	9	3	4	-7	/	-14	i
Cc1cc(-c2cccnc2)c(C#N)c(SCC#N)n1	-11	/	-5	0	-8	-12	-5	i
CCOC(=O)c1ccc(NC(=O)Cn2cc3c(n2)CCC(C)C3)cc1 (stereo unspecified)	-17	5	0	4	-6	5	/	i
COc1ccc(C2=CC3=C(Br)C(=O)C(C)(O)C(=O)C3=CO2)cc1 (stereo unspecified)	56*	/	3	9	43	15	-5	i	eIF4H FP inh retest=37;PABP polyA inh retest=60*
S=c1nccc(-c2ccc3c(c2)CCO3)[nH]1	-4	-23	-4	6	-14	-7	-18	i
O=C(CCl)Nc1cc2[nH]c(=O)[nH]c2cc1Br	8	4	-6	-9	20	/	20	i
CS(=O)(=O)Cc1ccc(C(=O)NNC(=O)c2cc(-c3ccccc3)n[nH]2)cc1	/	-3	-4	3	/	-17	-10	/
CCOc1cccc2cc(C(=O)NCc3ccc(C)cc3)c(=N)oc12	17	-59	-1	0	1	-3	-3	i
COc1nccnc1NS(=O)(=O)c1ccc(NC(=O)c2ccccc2Br)cc1	9	15	-4	2	-10	13	28	i
CC(Sc1nnc(COc2ccc(Cl)cc2)n1Cc1ccco1)C(=O)N1CCNC1=O (stereo unspecified)	/	-2	3	-4	/	-13	/	/
N#Cc1ccccc1OCC(=O)NC(=O)NCc1ccccc1	-4	-16	0	-1	-3	/	0	i
Cc1cc(C(C)(C)C)c(OC(=O)[C@@H]2OC(c3ccccc3)=C[C@H]2c2ccccc2)c(C(C)(C)C)c1	/	-6	-2	-6	/	-8	?	/
CCOCCCNC(=O)CCc1nnc2n(CCC(C)C)c(=O)c3ccccc3n12	5	8	-2	4	-6	6	-2	i
COc1ccc(CN(C)C(=O)c2cc(S(=O)(=O)N3CCCCCC3)ccc2OC)cc1OC	38	23	/	/	15	-1	/	i
O=C(CN(C(=O)c1ccco1)c1cccc(F)c1)NCc1ccc(F)cc1	-11	-32	1	-5	-10	-10	-10	i
O=C(CN1CCN(Cc2ccccc2)CC1)N1CCCCCC1	6	-5	2	3	13	/	-13	i
COc1ccc2nc(SCC(=O)NC3CC3)c(C#N)cc2c1	5	-3	-1	-1	5	-21	-12	/
CC(C)CC(=O)Nc1ccc(C(=O)CN2C(=O)NC3(CCOc4ccccc43)C2=O)cc1 (stereo unspecified)	/	-26	/	/	/	-6	-3	i
COc1ccc(CC(=O)NCCN2CCOCC2)cc1	-2	-2	-4	-5	-8	-19	-2	i
CCN(CC)S(=O)(=O)c1ccc2[nH]c(=O)cc(C(=O)NCC3CCCO3)c2c1 (stereo unspecified)	/	/	0	0	/	-13	0	i
CCOC(=O)N1CCN(C(=O)C2CCN(S(=O)(=O)c3cc(C)ccc3OC)CC2)CC1	2	-3	1	-1	5	2	-2	i
COc1ccc(-c2nnc(SCc3nc4ccccc4s3)n2C(C)C)cc1	-1	/	-10	-7	2	0	-4	i
CCN(CC)CCCNc1nc(C)cc(COC)c1C#N	-3	1	1	8	-4	/	1	i
OC(CN1CCN(c2ccc(F)cc2)CC1)c1ccc(Cl)cc1 (stereo unspecified)	2	0	4	5	1	0	/	i
COc1ccc(Cl)cc1NC(=S)NCc1ccc(S(N)(=O)=O)cc1	-11	4	1	-3	0	/	7	i
CC(C)[C@H](CO)N(Cc1cccc(F)c1)c1nc(Nc2cccc(Cl)c2)c2ncn(C(C)C)c2n1	-16	-4	-9	-17	-7	6	71	i
O=C(Nc1ncc(Cc2ccc(Cl)cc2Cl)s1)c1ccc([N+](=O)[O-])cc1	-1	-11	0	-15	3	/	-9	i
COc1ccc(NC(=O)/C(=C\c2ccccc2)NC(=O)c2ccco2)cc1	5	6	2	1	-2	/	-8	i
Cc1ccc(S(=O)(=O)N(C)C)cc1NC(=S)NC(=O)C12CC3CC(CC(C3)C1)C2	112	49	-17	-32	8	/	77*	i	eIF4H FP inh retest=-5;PABP polyA inh retest=0
Cc1cccc(NC(=S)NCCSc2ccc(Cl)cc2)c1	-13	-4	4	-3	10	-27	33	i
CCN(CC)CCn1c2c(c(SCC(=O)Nc3ccc(C)c(F)c3)nc1=O)CCCC2	/	/	-2	-2	/	/	-10	i
CC(=C\C(=O)O)/C(=C/c1ccccc1)C(=O)O	-7	-6	1	8	-4	/	-6	i
COC(=O)c1ccc(CN2CCC(Oc3ccc(C(=O)N4CCCCC4)cc3)CC2)cc1	0	32	-2	-3	-5	-8	9	i
CN(C)c1ccnc2c[cH-]cc12.[Fe].c1ccc(-[c-]2[c-](-c3ccccc3)[c-](-c3ccccc3)[c-](-c3ccccc3)[c-]2-c2ccccc2)cc1 (stereo unspecified)	9	57*	7&27	-9&-25	-2	-39&3	-13&-22	i
COc1cc(NC(=S)Nc2cccnc2)cc(OC)c1OC	4	-16	4	4	2	-22	-12	i
CCOC(=O)CN1NC2(CCCC(C)C2)NC1=S (stereo unspecified)	-1	-66	-1	5	-14	/	-16	i
CC(=O)Nc1ccc(Nc2ncc([N+](=O)[O-])c(Nc3ccc(NC(C)=O)cc3)n2)cc1	4	/	-2	-4	1	-18	5	i
CCCc1nc(SCC(=O)N2CCCC2)c2c(=O)n(C)c(=O)n(C)c2n1	0	-1	-10	-5	-1	13	-3	i
(more compounds)
SMILES	PABP polyA inh	HIV Env fusion	MT1-MMP act inh	MT1-MMP act inh RFP	eIF4H FP inh	Yeast UUG start	CSC inhib	Rce1 inh	others
COc1ccc(-c2nnc(SCC(=O)NC(C)C)n2CC2CCCO2)cc1OC (stereo unspecified)	4	-2	2	14	-5	-5	/	i
Cc1cc(C)n(CC(=O)NNC(=O)CC(C)c2ccccc2)n1 (stereo unspecified)	/	/	-1	0	/	-8	-4	/
O=S(=O)(N1CCOCC1)n1c(Cc2ccccc2)nc2ccccc21	-2	/	-1	-6	15	-22	-10	i
CN(C)CCNC(=O)c1cccc(-c2cnc3c(NC=O)cc(/C=C/c4ccccc4)cn23)c1	/	-25	-1	0	/	-6	/	/
COc1ccc(-c2nc3ccccc3c(=O)[nH]2)cc1	-14	-40	-2	1	-6	-11	-9	i
N#CCC1c2ccccc2CCN1C(=O)Nc1cccc(C(F)(F)F)c1 (stereo unspecified)	3	23	-5	-10	-6	-6	-8	i
CC(C)(C)NS(=O)(=O)c1ccc(CCC(=O)NCc2ccc3c(c2)OCO3)cc1	-6	/	1	-1	-13	-2	-2	i
CCC(C)(C)n1nnnc1C(c1ccc2ncccc2c1)N1CCN(Cc2ccc3c(c2)OCO3)CC1 (stereo unspecified)	5	/	3	-2	-4	/	0	i
COc1ccc(OC(C)C(=O)Nc2ccc(F)cc2F)cc1 (stereo unspecified)	-14	5	-4	-4	-10	/	12	i
O=S(=O)(Nc1ccc(-c2csc(-c3ccccc3)n2)cc1)c1ccc(F)cc1	-8	/	5	0	-4	-14	/	i
CCOc1ccc(NC(=O)CSC2=C(C#N)C(c3ccc4c(c3)OCO4)CC(=O)N2)cc1 (stereo unspecified)	2	-39	7	-4	1	-12	-7	i
CCOC(=O)C1CCN(C(=O)c2sc3ncn(CC(=O)N4CCCCC4)c(=O)c3c2C)CC1	/	28	0	-2	/	-18	/	/
O=C(CSc1ccc(Cl)cc1)N/N=C/c1cccnc1	42	3	0	-1	-22	/	-9	i
CC(=O)N1CCN(C(=O)CCc2nnc(CCCCc3ccccc3)o2)CC1	-7	8	-2	1	5	-9	13	i
Cc1cccc(-n2c(C)nc3cc(C(=O)N4CCOCC4)ccc32)c1	3	-15	-2	3	-10	-17	2	i
O=C(Nc1ccc2ccccc2c1)c1cc(F)c(F)cc1Cl	6	-80	-3	-1	-9	9	13	i
COc1ccc(/C(C#N)=C/c2cccnc2)cc1	-1	-26	-7	-2	7	-17	/	i

Structures above with fluorine, in the order listed:
SMILES	PABP polyA inh	HIV Env fusion	MT1-MMP act inh	MT1-MMP act inh RFP	eIF4H FP inh	Yeast UUG start	CSC inhib	Rce1 inh	others
Cn1nc(C(=O)OCc2ccc(Br)cc2F)c2ccccc2c1=O	-2	-11	-5	-20	11	/	/	i
O=C(CSc1nc2ccccc2c(=O)n1-c1ccccc1F)NC1CCS(=O)(=O)C1 (stereo unspecified)	/	5	-3	1	/	-12	/	/
O=C(CN(C(=O)c1ccco1)c1cccc(F)c1)NCc1ccc(F)cc1	-11	-32	1	-5	-10	-10	-10	i
OC(CN1CCN(c2ccc(F)cc2)CC1)c1ccc(Cl)cc1 (stereo unspecified)	2	0	4	5	1	0	/	i
CC(C)[C@H](CO)N(Cc1cccc(F)c1)c1nc(Nc2cccc(Cl)c2)c2ncn(C(C)C)c2n1	-16	-4	-9	-17	-7	6	71	i
CCN(CC)CCn1c2c(c(SCC(=O)Nc3ccc(C)c(F)c3)nc1=O)CCCC2	/	/	-2	-2	/	/	-10	i
N#CCC1c2ccccc2CCN1C(=O)Nc1cccc(C(F)(F)F)c1 (stereo unspecified)	3	23	-5	-10	-6	-6	-8	i
COc1ccc(OC(C)C(=O)Nc2ccc(F)cc2F)cc1 (stereo unspecified)	-14	5	-4	-4	-10	/	12	i
O=S(=O)(Nc1ccc(-c2csc(-c3ccccc3)n2)cc1)c1ccc(F)cc1	-8	/	5	0	-4	-14	/	i
O=C(Nc1ccc2ccccc2c1)c1cc(F)c(F)cc1Cl	6	-80	-3	-1	-9	9	13	i
